Bioassay records from PubChem BioAssay.
H5N1 antiviral – MDCK cell protection from H5N1 avian flu; cytopathic effect, luminescence, 72 h; stronger effect = higher value; no value below 0 was filed and about half of the inactive calls have no number; reference of the scale not given here; inhibition, % at 50 µM; actives 0.07% (n = 96,000); AID 740; in the data active means inhibition above about 25%
* hit, by the source's call; i = inactive.

SMILES | H5N1 antiviral
COCCCNC(=O)CN(Cc1ccc(Cl)cc1)S(C)(=O)=O | 0.5
COc1ccc(OC)c(S(=O)(=O)Nc2cc(OC)c(Cl)cc2OC)c1 | 4.2
COC(=O)c1cccc(N(C(=O)CNC(=O)c2ccco2)C(C(=O)NC2CCCC2)c2ccco2)c1 (configuration not stated) | i
Cc1ccc2nc(N3CCN(C(=O)c4cccs4)CC3)c(C#N)cc2c1 | 2.2
COc1cc(NC(=O)COc2ccc(-n3cnnn3)cc2)c(OC)cc1Cl | 1.3
Cc1ccc(C(=O)NC(=S)N2CC(C)OC(C)C2)cc1[N+](=O)[O-] (configuration not stated) | i
Cc1ccc(S(=O)(=O)c2c(C)nn(C(C)(C)C)c2OC(=O)c2cccs2)cc1 | i
CCCCOC(=O)CSc1nnc(N)s1 | 0.1
COc1cc(C2=NOC(C(=O)NCc3ccco3)C2)cc(OC)c1OC (configuration not stated) | i
Cc1nn(-c2ccccc2)c2sc(C(=O)N(CC(=O)NC(C)(C)C)Cc3ccco3)cc12 | i
CCN(CC)CCCNC(=O)Cn1cc2c(n1)CCC(C)C2 (configuration not stated) | 1.5
COc1cccc(OC)c1C(=O)Nc1ccc(S(=O)(=O)Nc2cc(C)nc(C)n2)cc1 | 0.1
O=C(c1cnn2c(C(F)(F)F)cc(-c3ccccc3)nc12)N1CCC2(CC1)OCCO2 | 1.6
CC1(C)C(=O)Nc2ccccc2N1C(=O)CN1C(=O)c2ccccc2C1=O | i
Cc1sc(NC(=S)NC(=O)c2ccc(C(C)(C)C)cc2)c(C#N)c1C | 0.2
Cc1ccc(S(=O)(=O)NCC(=O)N(CCc2ccccc2)CC(=O)NCc2ccco2)cc1 | 1.1
COc1ccccc1-c1cc(N)n[nH]1 | 0.1
COc1ccc(/C=N/c2oc(-c3ccccc3)cc2C#N)cc1OC | 0.0
CCNC(=O)c1ccccc1NC(=O)c1cccc(S(=O)(=O)N2CCC(C)CC2)c1 | 10
COc1ccc(Br)cc1C(=O)O | i
Cc1cc(-n2c(SCC(=O)NCc3cccs3)nc3n[nH]c(C)c3c2=N)ccc1Cl | i
COc1cc(SC)ccc1C(=O)Nc1ccon1 | 0.8
COc1ccccc1C(=O)Nc1ncc2c(n1)CC(c1ccco1)CC2=O (configuration not stated) | i
Brc1ccc(CSc2ncn[nH]2)cc1 | 0.6
Cc1ccc(S(=O)(=O)N2CCC(C(=O)N[C@@H](C)C(=O)Nc3ccc4c(c3)OCO4)CC2)cc1 | i

Next part
SMILES | H5N1 antiviral
CN(C)c1ccc(C(=O)c2ccccc2C(=O)O)c(O)c1 | 0.4
Cc1cccc(/C=N\NC(=O)c2csnn2)c1 | i
CCCSc1nnc(-c2c[nH]c3ccccc23)n1CC | i
Cn1nc(-c2ccc(Cl)cc2)c2cc(C(=O)N3CCN(c4ccccc4)CC3)sc21 | 2.4
CCOC(=O)N(C)c1ccc(C(O)(C(=O)OCC)C(F)(F)F)cc1 (configuration not stated) | 0.8
Cc1ccc(S(=O)(=O)N2CCN(C(=O)CSc3nnnn3C)C2)cc1 | 1.6
C=CCSc1nnc(-c2ccccc2NC(C)=O)c(=O)[nH]1 | i
CCc1ccc(NC(=O)Nc2cccs2)cc1 | i
CCOC(=O)N1CCN(C(=O)c2nc3ccccc3s2)CC1 | 0.7
Cc1ccc(-c2nnc(N(C)C(=O)C3CCCO3)s2)cn1 (configuration not stated) | i
COc1ccc(C)cc1NC(=O)CN(C)S(=O)(=O)c1cccs1 | i
N#Cc1ccc(NC(=O)N2CCC(c3nc4c(nnn4Cc4cccc(Cl)c4)c(=O)[nH]3)CC2)cc1 | 0.2
COc1cc2ccc(=O)oc2c(O)c1OCC=C(C)C | 0.3
CC(C)C(=O)NC(=S)Nc1ccc(S(=O)(=O)NC(C)(C)C)cc1 | i
COCCN(C(=O)C(F)(F)F)C(C(=O)NC1CCCCC1)c1ccco1 (configuration not stated) | 0.4
Cc1ccc(COc2coc(CO)cc2=O)cc1 | i
Cc1ccc2c(c1)NC(=O)C(CC(=O)Nc1ccc(CN3CCC(C)CC3)cc1)O2 (configuration not stated) | i
COc1ccc(C(=O)NC2(C(F)(F)F)N=C3SCCN3C2=O)cc1 (configuration not stated) | i
Cc1cc(N)n(C2CCN(C)CC2)n1 | i
O=C(Nc1cc2c(ccc3ccccc32)oc1=O)C1CCCCC1 | 0.6
Cn1c(SCC(=O)N2CCCc3ccccc32)nnc1-c1ccccc1 | i
Cc1noc(C)c1CSc1nnc2scc(-c3ccccc3)n12 | 4.5
COC(=O)c1ccccc1NC(=O)CN1CCC(NC(=O)c2ccc(C)cc2)CC1 | 1.3
CCOC(=O)c1c(C)[nH]c(C(=O)COC(=O)c2ccc(N3CCCC3=O)cc2)c1C | i
CC(=O)N1N=C(c2ccc(C)o2)CC1c1ccc(Br)cc1 (configuration not stated) | 0.8

(cont.)
SMILES | H5N1 antiviral
COc1cc2[nH]c(=O)n(CCCCCC(=O)N3CCN(c4ccccn4)CC3)c(=O)c2cc1OC | 1.0
O=C1OC(Nc2ccc(F)cc2F)c2ccccc21 (configuration not stated) | 0.8
CCc1oc2c(C)c(O)ccc2c(=O)c1-c1ccc2ccccc2n1 | 0.4
CCn1nnc(-c2ccccc2NS(=O)(=O)c2ccc(S(=O)(=O)N3CCCCCC3)cc2)n1 | i
CCOCCOC(=O)c1cccc(NC(=O)OCC)c1 | i
CCOC(=O)c1ccccc1NC1CC(=O)N(c2ccccc2C)C1=O (configuration not stated) | 0.1
COc1ccc(CCNC(=O)CN2C(=O)c3ccccc3C2=O)cc1 | 0.4
CCC(CC)C(=O)c1c[nH]c(C(=O)NCC2CCCO2)c1 (configuration not stated) | i
O=C(CSc1nnc(-c2ccccc2)o1)Nn1cnnc1 | i
Cn1nc(OC(=O)Nc2ccc(Cl)cc2)cc1C(F)(F)F | i
CCCc1ccc(-c2cc(N)n[nH]2)cc1 | 0.1
Cc1ccc(C(=O)Nn2c(N)c(S(=O)(=O)c3ccc(C)cc3)c3nc4ccccc4nc32)cc1 | 0.4
COc1ccc(C(OC(=O)c2ccco2)C(=O)NC2CCCCC2)cc1OC (configuration not stated) | i
O=C(CS(=O)(=O)Cc1ccccc1)N1CCc2ccccc21 | 1.6
N/C(=N\c1nc2ccccc2o1)NC(=O)c1ccccc1 | i
Cc1nn(S(=O)(=O)c2ccccc2)c(C)c1Sc1ccc([N+](=O)[O-])cc1 | i
Oc1ccccc1N=Nc1nc(-c2ccccc2)c(-c2ccccc2)[nH]1 | i
Cn1cc(Cl)c(C(=O)NC2CCCC2)n1 | 0.8
O=C(CCNC(=O)Cn1ccc2ccccc2c1=O)NCCN1CCc2ccccc2C1 | 1.5
COc1cccc(C(=O)N(Cc2ccc3c(c2)OCO3)Cc2nc3ccccc3c(=O)[nH]2)c1 | i
O=C(O)CNS(=O)(=O)c1ccc(-c2ccccc2)cc1 | i
CCC1=Nc2cc(C(=O)NCCCOC(C)C)ccc2Sc2ccccc21 | i
Cc1nc(SCc2c(F)cccc2Cl)n[nH]1 | 1.1
O=C(NCC1CCCO1)Nc1cccc(Cl)c1 (configuration not stated) | i
COC(=O)C(C)Sc1nnc(Cc2cc(=O)[nH]c(=O)[nH]2)n1-c1ccc(OC)cc1 (configuration not stated) | 0.6

Given as labelled records: entries from further up
> O=C(O)CNS(=O)(=O)c1ccc(-c2ccccc2)cc1
- H5N1 antiviral: i

> Oc1ccccc1N=Nc1nc(-c2ccccc2)c(-c2ccccc2)[nH]1
- H5N1 antiviral: i

> Cn1cc(Cl)c(C(=O)NC2CCCC2)n1
- H5N1 antiviral: 0.8

> N#Cc1ccc(NC(=O)N2CCC(c3nc4c(nnn4Cc4cccc(Cl)c4)c(=O)[nH]3)CC2)cc1
- H5N1 antiviral: 0.2

Rewritten in markdown: entries from further up.
| mol | H5N1 antiviral |
| --- | --- |
| Cc1sc(NC(=S)NC(=O)c2ccc(C(C)(C)C)cc2)c(C#N)c1C | 0.2 |
| Cc1ccc(S(=O)(=O)NCC(=O)N(CCc2ccccc2)CC(=O)NCc2ccco2)cc1 | 1.1 |
| COc1ccccc1-c1cc(N)n[nH]1 | 0.1 |
| COc1ccc(/C=N/c2oc(-c3ccccc3)cc2C#N)cc1OC | 0.0 |
| CCNC(=O)c1ccccc1NC(=O)c1cccc(S(=O)(=O)N2CCC(C)CC2)c1 | 10 |
| COc1ccc(Br)cc1C(=O)O | i |

Next part:
SMILES | H5N1 antiviral
CC1CC(C)CN(CCCNC(=O)CC2Oc3ccccc3NC2=O)C1 (configuration not stated) | 0.5
CC(Oc1ccccc1)C(=O)Nc1ccc(C(N)=O)cc1 (configuration not stated) | i
COc1ccc(NC(=O)Nc2ccccc2C)c(OC)c1 | i
CCn1nc(C)c(NC(=O)CSc2nnc(-c3ccco3)n2C)c1C | 0.3
CNC(=O)CSc1nnc(CCc2ccccc2)n1-c1ccccc1 | 0.7
COc1ccccc1N1CCN(CC(=O)Nc2ccc(C)c(F)c2)CC1 | i
O=C(OCC(=O)N1CCCc2ccccc21)c1ccc(Br)o1 | i
Cc1ccc(NCCC(=O)c2ccc(Cl)cc2)cc1 | i
CC(=O)OC(Cn1ccnc1)c1ccccc1 (configuration not stated) | i
CNC(=O)CCCc1nc(-c2ccccc2Cl)no1 | i
Nc1ncnc2oc(-c3ccco3)c(-c3ccco3)c12 | 3.0
CCCc1nnc(SCC(=O)N2CCCCC2C)n1CC1CCCO1 (configuration not stated) | i
CN1CC=C2C(C#N)=C(N)C(C#N)(C#N)C(c3ccsc3)C2C1 (configuration not stated) | 2.4
O=C(CSc1nnc(NCc2ccccc2)s1)c1ccco1 | i
O=C(Nc1ccc(N2CCCC2)cc1)c1cccc(F)c1 | 0.2
Cc1ccc2cc(CCNC(=O)CC(C)C)c(=O)[nH]c2c1 | i
C=CCn1c(COc2ccccc2)nnc1SCC(=O)Nc1ccc(S(N)(=O)=O)cc1 | 0.3
CCOC(=O)c1ccc(N2C(=O)c3n[nH]c(C)c3C2c2cccnc2)cc1 (configuration not stated) | 0.8
O=C(CN1CCN(c2ccccn2)CC1)Nc1ccc(Cl)c(C(F)(F)F)c1 | i
COc1ccc(N(Cc2cc3cc(OC)ccc3[nH]c2=O)C(=O)c2cccnc2)cc1 | 1.3
CC(C)CC(=O)Nc1ccccc1-c1nnn(CC(=O)N2CCc3ccccc3C2)n1 | i
COc1ccc2nc(SCC(=O)N3CCCCCC3)c(C#N)cc2c1 | 2.8
CCN(CCNC(=O)c1ccc2nc(-c3ccccc3NC(C)=O)c(=O)[nH]c2c1)c1ccccc1 | i
O=C(CSc1nc2ccccc2s1)NC1CCS(=O)(=O)C1 (configuration not stated) | i
CCS(=O)(=O)N1CCC(C(=O)N2CCOCC2)CC1 | 1.1

Next section
SMILES | H5N1 antiviral
COc1cc2nc(CN(C)Cc3nc4ccccc4c(=O)[nH]3)[nH]c(=O)c2cc1OC | 0.2
Cc1cc(=O)[nH]c(SCn2nnc3ccccc3c2=O)n1 | 0.0
CC(C)C(=O)Nc1ccnc(-c2cccnc2)n1 | 1.0
Cc1cc2ccccc2c(=O)n1CC(=O)NCC(=O)N1CCCC1 | 1.4
O=C(OCc1nnc(-c2ccccc2)o1)C1CCN(S(=O)(=O)c2cccs2)CC1 | 0.5
O=C(NC1CCCCCC1)c1cccc(N2CCCC2=O)c1 | i
O=C(c1ccco1)N1CCN=C1SCc1c(F)cccc1Cl | 2.1
O=c1cccc(-c2ccccc2)[nH]1 | 0.0
CCCC1(C(=O)OCC)NC(c2ccc(N(C)C)cc2)C2C(=O)N(c3ccc(OCC)cc3)C(=O)C21 (configuration not stated) | 0.3
CS(=O)(=O)N(Cc1ccccc1)c1ccc(C(=O)NCC2CCCO2)cc1 (configuration not stated) | 0.2
Oc1ccc(C=Nc2cccc3ncccc23)c(O)c1 | i
CCOC(=O)c1cc2n(c1C)-c1ccccc1C2=O | 0.8
O=C(O)c1cc(-c2ccc(O)cc2)nc2ccccc12 | i
CCCn1c2c(c(O)c(C(=O)Nc3ncccc3C)c1=O)CCCC2 | 1.4
Cc1nc2ccccc2c(=O)n1CCCn1ccnc1 | 0.3
CNC(=O)COC(=O)c1cc2c(C)nn(-c3ccc(F)cc3)c2s1 | 0.3
COc1ccccc1-n1c(SCC(=O)NC2CCCC2)nc2cccnc21 | 1.6
CC1(C)CC(=O)c2cc(C(=O)NCc3ccco3)c(=O)n(-c3ccc(Cl)cc3)c2C1 | 7.0
CC(C)Cn1c(-c2cccs2)nc2ccccc21 | 0.8
O=C1CN(C(=O)COC(=O)c2oc3ccccc3c2COc2ccccc2)c2ccccc2N1 | 0.1
COc1ccc2c(c1)N(C)/C(=C1/SC(=NCc3ccccc3)N(c3ccccc3)C1=O)S2 | 0.1
COc1ccc(COC(=O)c2n[nH]c3ccccc23)cc1F | 0.8
Cc1cc(C)c2nc(SC(C)C#N)cc(C)c2c1 (configuration not stated) | 0.1
CCn1c(=O)cc(OCC(=O)N2CCCC2)c2ccccc21 | 1.4
CCC1CCCCN1C(=O)CSc1nnc(CNC(=O)c2ccco2)o1 (configuration not stated) | 0.2
N#Cc1ccc(CSc2nnc(-c3ccccn3)n2-c2ccccc2)cc1 | 1.1
Clc1ccc(COn2nnc3ccccc32)c(Cl)c1 | 1.3
C/C(O)=C\c1nc(=O)c2c(C)cc(C)nc2n1-c1ccccc1 | 1.0
CC1CC(C)(C)N2C(=O)C3(Nc4ccccc4S3)c3cccc1c32 (configuration not stated) | 1.1

Rewritten with each value named: entries from further up.
mol: Cc1cc2ccccc2c(=O)n1CC(=O)NCC(=O)N1CCCC1
  H5N1 antiviral = 1.4
mol: COc1cc2nc(CN(C)Cc3nc4ccccc4c(=O)[nH]3)[nH]c(=O)c2cc1OC
  H5N1 antiviral = 0.2
mol: CC1CC(C)(C)N2C(=O)C3(Nc4ccccc4S3)c3cccc1c32 (configuration not stated)
  H5N1 antiviral = 1.1
mol: COc1ccc2c(c1)N(C)/C(=C1/SC(=NCc3ccccc3)N(c3ccccc3)C1=O)S2
  H5N1 antiviral = 0.1

Only part of the results is shown, so the mix of outcomes need not match the whole.
